# D2 agonist: agonists of human D2 dopamine receptor (beta-arrestin); AID 624465; P14416; activation, % (no concentration beside the values); DiscoveRx PathHunter D2 beta-arrestin, luminescence, 90 min; 100% = 57 uM dopamine signal; 360,000 compounds, 0.084% hits; in the data active = activation above about 40%; inconclusive = about 15% to 40%; inactive = below about 15%; note: compound concentration not given in the record; the text of the record calls up to 30% inactive
#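 DiscoveRx PathHunter D2 beta-arrestin cells (2,100/well) attached overnight, then compound-stimulated 90 min at 37 C in HBSS/10 mM HEPES/0.1% Tween-20 buffer; beta-galactosidase complementation read by luminescence after 1 h at ambient temperature. Dopamine 57 uM final (EC100) as control.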
# CtBP-E1A blk: CtBP/E1A binding inhibition | AlphaScreen GST-E1A/His-CtBP binding, 1536-well; active compounds read low; control for the full effect not named in the record | 340,000 compounds, 0.49% hits | activity change, % (test concentration not listed); in the data active means activity change below about -65%; inconclusive means about -30% to -65%; inactive means above about -30%; note: % is set by controls: 0 for no effect and ±100 for the full control effect
#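 Steps: dispense buffer (Tris pH 8.0, NaCl 300 mM, TCEP 1 mM, BSA, Tween 20); add 5X protein mix (GST-E1A, His-CtBP, 125 nM each); pin 23 nL compound; 2 h at 37 °C, dark; add 5X beads (50 ug/mL); 1 h; read.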
# gsp antag: gsp mutant antagonism. gsp-mutant cells, cAMP HTRF, 30 min; control for the full effect not named in the record. Potency, µM (highest dose often 76.9 µM), for the others: top-dose activity change, negative = inhibition, hits mostly inhibitors. 340,000 compounds, 0.4% hits. AID 624288; active = falling curve of any shape with a large fitted effect; inconclusive = falling curve, mostly with a smaller effect; inactive = flat or rising curve; cell line not stated here;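 note: intracellular cAMP measured with PDE inhibitor Ro 20-1724 present during compound exposure; potency is the fitted concentration of half-maximal effect; % is set by controls: 0 for no effect and ±100 for the full control effect; nearly all actives have a fitted effect of over 65% in size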
#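 G418-selected cells were plated in DMEM/10% FBS for 16-24 h at 37C, then treated with compounds plus the PDE inhibitor […] (300 uM solution added) for 30 min at 37C. Intracellular cAMP was measured by HTRF after 30 min lysis at room temperature.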
# D2 PAM: potentiates the human D2 dopamine receptor allosterically; DiscoveRx D2 beta-arrestin cells, luminescence, 90 min; 100% = 57 uM dopamine signal; potentiation, % (no concentration beside the values); 360,000 compounds, 0.23% hits; AID 624464; active = potentiation of 50% or more; inconclusive = 30% to 50%; inactive = 30% or less;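 note: compound concentration not given in the record; tested on top of an EC20 dose of dopamine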
#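 D2 cells co-treated with compound plus 50 nM dopamine (EC20) for 90 min at 37 deg C to detect potentiation. Beta-arrestin recruitment was read as enzyme-fragment luminescence after 1 h at ambient temperature. Full response was set by 57 uM dopamine.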
# Six1-Eya2 blk: inhibitors of human Six1/Eya2 interaction | Q15475+O00167 | AID 651725 | AlphaScreen GST-Six1/His-Eya2 binding, biochemical; active compounds read low; control for the full effect not named in the record | 360,000 compounds, 0.56% hits | activity change, % (no concentration beside the values); in the data active = activity change below about -65%; inconclusive = about -30% to -65%; inactive = above about -30%; note: % is set by controls: 0 for no effect and ±100 for the full control effect
# Target sequence (O00167 whole entry, looked up): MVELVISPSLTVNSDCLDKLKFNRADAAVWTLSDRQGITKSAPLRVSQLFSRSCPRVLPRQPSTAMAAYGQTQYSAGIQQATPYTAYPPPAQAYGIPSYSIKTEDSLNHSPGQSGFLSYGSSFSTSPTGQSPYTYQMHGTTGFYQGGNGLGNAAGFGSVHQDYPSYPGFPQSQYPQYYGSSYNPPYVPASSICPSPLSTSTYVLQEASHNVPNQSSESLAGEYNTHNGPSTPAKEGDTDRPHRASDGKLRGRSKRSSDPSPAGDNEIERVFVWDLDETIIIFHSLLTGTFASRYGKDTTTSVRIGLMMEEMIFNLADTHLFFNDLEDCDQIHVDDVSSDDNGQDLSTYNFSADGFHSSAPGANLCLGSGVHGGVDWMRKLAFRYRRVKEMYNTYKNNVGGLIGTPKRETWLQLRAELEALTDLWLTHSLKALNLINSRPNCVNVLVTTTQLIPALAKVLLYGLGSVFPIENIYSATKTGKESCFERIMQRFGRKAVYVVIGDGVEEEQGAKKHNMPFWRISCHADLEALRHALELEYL
# Target sequence (Q15475 whole entry, looked up): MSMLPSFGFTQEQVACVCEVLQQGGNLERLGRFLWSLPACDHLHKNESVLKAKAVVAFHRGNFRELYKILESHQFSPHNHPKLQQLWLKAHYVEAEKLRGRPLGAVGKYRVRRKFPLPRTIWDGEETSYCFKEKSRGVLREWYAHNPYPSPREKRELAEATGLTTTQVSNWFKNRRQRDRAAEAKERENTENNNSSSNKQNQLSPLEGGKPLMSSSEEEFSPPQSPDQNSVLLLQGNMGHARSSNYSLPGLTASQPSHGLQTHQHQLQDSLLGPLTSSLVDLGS
#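 AlphaScreen with GST-Six1 and His-Eya2 (5X mix: 250 nM and 500 nM), glutathione donor and nickel acceptor beads; buffer 50 mM Tris pH 8.0, 300 mM NaCl, 1 mM TCEP; 1 h at 37 C in the dark.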
# gsp agonist: activates gsp, the McCune-Albright syndrome mutation | Potency, µM (highest dose often 76.9 µM), for the others: top-dose activation (cAMP increase), hits mostly activators | 340,000 compounds, 0.13% hits | gsp mutant cells, cAMP HTRF, 30 min; control for the full effect not named in the record | AID 624287; active = well fitted activation curve with a large enough effect; inconclusive = small, poorly fitted or top-dose-only effect, or another doubt; inactive = no such curve, though single readings can be large or run the other way; cell line not stated here;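 note: phosphodiesterase inhibitor Ro 20-1724 added with compounds to block cAMP breakdown; potency is the fitted concentration of half-maximal effect; nearly all actives have a fitted effect of over 60% in size; about a fifth of the inactives were tested at one dose only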
#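 Cells in DMEM/10% FBS with G418 were pretreated with compounds in DMSO plus […] (300 uM stock) for 30 min at 37C. cAMP was measured by HTRF (cAMP-d2 plus anti-cAMP antibody-K) after 30 min at room temperature.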
# An asterisk follows results filed as active; ? = inconclusive; · = not tested or not shown; & = joins results of further samples; [ ] = remark or other dose.
D2 agonist	CtBP-E1A blk	gsp antag	D2 PAM	Six1-Eya2 blk	gsp agonist	SMILES
-2.9	2.8	4.6%	-11.0	1.0	-8.9%	CN(C(=S)Nc1ccccc1F)C1(c2ccccc2Cl)CCCCC1=O (configuration not stated)
-1.2	6.1	-7.4%	-16.9	7.0	?	CCCCN1CCNC[C@@H]1c1ccccc1
-5.3	-11.2	-4.7%	-8.0	6.2	3.9%[15.4 µM]	COc1cc([N+](=O)[O-])cc2cc(C(=O)NC(C)(C)C)c(=O)oc12
-4.4	·	3.1%	-6.1	1.4	5.9%	CCCCN(C)CCCNC(=O)C1CCC(CNS(=O)(=O)c2c(C)cc(C)cc2C)CC1 (configuration not stated)
-5.8	0.2	-23.8%	0.2	-8.9	-38.5%[inhibitor]	CCN(CC)C(=O)Cn1cc(C(=O)C(=O)Nc2ccc3c(c2)OCCO3)c2ccccc21
2.6	-8.5	-2.4%	-2.2	-6.7	?	Brc1ccc(-c2cn3c(n2)SCC3)cc1
-2.1	12.2	-2.8%	-2.8	-1.3	-49.3%[inhibitor]	CCOC(=O)COn1c(=O)c(=O)n(O)c2ccccc21
-1.7	-3.1	6.6%	-3.8	3.1	?	C=CCOc1ccc(C2/C(=C(\O)c3ccc(F)cc3)C(=O)C(=O)N2CCCN(C)C)cc1 (configuration not stated)
-2.1&1.0	-16.7&-12.7	-4.1%&6.8%	-11.9&-3.5	?	-0.2%	O=C(O)CC1S/C(=N/N=C/C=C/c2ccccc2)NC1=O (configuration not stated)
-2.8	-1.1	-0.8%	-15.5	12.9	0.4%	CCn1c(SCC(=O)N2CCCCCC2)nc2c(c1=O)SCC2
-2.7	-5.7	8.4%	1.9	5.7	?	NC(=O)NC(=O)CSc1cccc(C(F)(F)F)c1
3.9	7.1	-1.6%	-2.3	3.2	?	C[C@@H](C(=O)N1CCN(Cc2ccc3c(c2)OCO3)CC1)n1nnc2ccccc2c1=O

D2 agonist	CtBP-E1A blk	gsp antag	D2 PAM	Six1-Eya2 blk	gsp agonist	SMILES
-3.4	-3.7	-18.5%	-19.9	0.0	-3.9%	O=C(Nc1nc2ccc(S(=O)(=O)N3CCCCC3)cc2s1)c1cccnc1
13.9	10.1	?	119.3*	-2.2	15.0%	N/C(Cc1ccc(Cl)cc1Cl)=N\OC(=O)c1cccs1
-2.6	1.6	-6.0%	-2.1	1.7	2.6%	Cc1nc2ccccc2c(=O)n1/N=C/c1ccccc1
-3.1	2.2	-0.2%	-27.6	-1.6	-0.8%	Cc1cc(C)c2c(c1)/C(=N/NS(=O)(=O)c1ccccc1)CCC2
-1.2	·	1.9%	-6.1	-10.7	-42.3%[inhibitor]	CSc1ccc(/C=N/N2CCN(Cc3ccc(C)cc3C)CC2)cc1
-0.2	0.2	-4.2%	-4.1	-1.4	-47.1%	COc1cccc(C2=NOC(C(=O)Nc3ccc(C(C)=O)cc3)C2)c1 (configuration not stated)
7.8	-5.7	-0.3%	2.0	4.9	-4.2%[15.4 µM]	CC(C)(C)S(=O)(=O)c1cnc(-c2cnccn2)nc1N
-3.9	0.1	3.8%	-36.6	-0.8	-24.0%	CC(NC(=O)COc1ccccc1)C(c1ccccc1)N1CCN(C)CC1 (configuration not stated)
-6.4	0.0	-9.0%	-39.3	21.1	5.9%	CC1CCc2sc(C(=O)NCC(C)(C)N3CCOCC3)cc2C1 (configuration not stated)
-1.0	-0.1	7.5%	5.4	3.8	?	O=C(CSc1nnc2ccccn12)Nc1ccccc1C(=O)O
-3.3	6.5	10.7%	-10.1	7.9	-25.2%[15.4 µM]	Cc1ccc(CNc2nc3ccccc3n2C)o1
-1.1	·	2.4%	-4.3	5.0	-24.1%	CN(c1cccc(NC(=O)c2cccc([N+](=O)[O-])c2)c1)S(C)(=O)=O

D2 agonist	CtBP-E1A blk	gsp antag	D2 PAM	Six1-Eya2 blk	gsp agonist	SMILES
-1.7	-3.6	-14.7%	-6.9	14.5	-55.2%[inhibitor]	O=C(OCCc1cc2ccccc2c(=O)o1)c1ccc(F)cc1
2.4	5.8	-0.7%	7.7	-3.2	9.2%	COC(=O)c1cccc(S(=O)(=O)N(Cc2ccco2)Cc2cc3ccc(OC)cc3[nH]c2=O)c1
-3.3	5.2	-1.5%	5.8	-11.1	27.1%	COC(=O)CNC(=O)CN1C(=O)NC2(CCCc3ccccc32)C1=O (configuration not stated)
0.9	-1.7	-3.2%	-1.1	-6.0	0.8%[15.4 µM]	COc1ccc(N2CC(NC(=O)c3ccc4ccccc4c3)CC2=O)cc1OC (configuration not stated)
2.1	·	-2.8%	3.3	-3.8	-21.0%	Cc1ccsc1/C=N/N=C/c1sccc1C
-2.0	-10.0	26.4%	-9.1	-6.2	18.2%	Cc1nnc(NCc2n[nH]c(=O)c3ccccc23)c2ccccc12
-0.9	11.4	-3.9%	-4.6	0.2	-2.8%	CCn1c(=O)c(C(=O)NCc2ccccc2OC)c(O)c2ccccc21
-3.2	-0.4	5.6%	15.9	2.6	-1.5%[15.4 µM]	CCCCn1c(N)c(N(CCOC)C(=O)c2ccc(Cl)c(S(=O)(=O)N3CCCC3)c2)c(=O)[nH]c1=O
0.2	·	10.5%	-1.8	0.3	24.8%	COC(=O)c1ccc(CNC(=O)Cn2cnnn2)cc1
-1.4	-1.1	0.3%	-4.6	2.4	-34.7%	CCCOC(=O)CC1C(=O)NCCN1Cc1ccc(F)cc1 (configuration not stated)
-2.9	-15.9	·	-11.3	-21.1	-30.8%[inhibitor]	COc1ccc(CNC(=O)COC(=O)c2c(NC(C)=O)sc(C)c2C)cc1OC
1.3	-8.3	-5.8%	0.7	-2.5	-24.4%	O=C(Nc1nc2cc3c(cc2s1)OCCO3)C1=COCCO1

D2 agonist	CtBP-E1A blk	gsp antag	D2 PAM	Six1-Eya2 blk	gsp agonist	SMILES
-1.3	·	-3.1%	-32.8	-3.3	-14.2%	CC(=O)n1cc(N(C(=O)CCl)c2ccc(Cl)cc2)c2ccccc21
2.6	-3.6	·	-3.8	-1.7	·	COc1ccc(-c2ccc3nccn3c2)cc1
-4.5	-20.9	-9.2%	-13.2	-4.0	-13.5%[15.4 µM]	CCOC(=O)c1c(NC(=O)CSc2nccc(=O)[nH]2)sc(C)c1C
-2.0	7.3	8.2%	-6.1	4.7	15.9%	O=c1cc(CN2CCOCC2)nc(C2CC2)[nH]1
10.0	0.1	4.5%	-7.4	-3.0	-32.9%[inhibitor]	COc1ccc(NS(=O)(=O)c2cc(NC(=O)c3cc(F)c(F)c(F)c3F)ccc2N2CCCC2)cc1
-4.5	-1.1	3.0%	-11.0	-4.9	9.4%[15.4 µM]	Cc1ccc(-c2nc(C)sc2CC(=O)NCc2ccco2)cc1
0.1	-8.5	1.7%	-11.7	-6.2	29.6%	CN1CCN(c2ccccc2NC(=O)COc2ccc(Br)cc2)CC1
-2.7	-6.9	1.1%	-3.1	-5.0	-13.8%[15.4 µM]	OCC1CCCN(C(=S)Nc2ccc(Oc3ccccc3)cc2)C1 (configuration not stated)
-0.8	-0.7	-10.5%	-6.9	-15.6	-24.4%	COc1ccc(-n2c(=O)c3ccccc3c3ccccc3c2=O)c(OC)c1
3.2	0.0	-2.9%	-8.0	-4.1	8.9%	CC(C)[C@H](NC(=O)c1cc2cc(Cl)ccc2n1C)C(=O)N[C@@H](C(=O)O)c1ccccc1
0.0	-0.5	-6.3%	-4.4	-0.8	7.8%	Cc1cccc(NC(=O)CN2CCCN(S(=O)(=O)c3ccc(Br)s3)CC2)c1
-3.7	11.1	4.4%	-7.4	-2.6	-9.4%	CCC(=O)N/N=C(\C)CC(=O)Nc1ccc(F)cc1

D2 agonist	CtBP-E1A blk	gsp antag	D2 PAM	Six1-Eya2 blk	gsp agonist	SMILES
-2.9	39.2	18.2%	-13.0	22.1	-1.6%	CC1CCCCN1S(=O)(=O)c1ccc(NC(=O)CSc2nnnn2C)cc1 (configuration not stated)
-7.1	0.1	-2.0%	-5.2	-0.5	-14.1%	Cc1ccccc1-n1c(Cn2c(=O)sc3ccccc32)nnc1SC(C)C
0.5	9.4	0.2%	-10.7	-0.3	-11.0%	CC(=O)c1ccc(OCC(C)C)c(CC(C(N)=O)C(N)=O)c1
1.9	2.6	4.2%	5.6	-1.3	8.8%	CCOc1cc(C(=S)N2CCOCC2)ccc1OC
1.3	-21.0	?	-18.1	-9.7	-82.8%[inhibitor]	CCOC(=O)N1CCC(Nc2c(Nc3ccc(C)c(C)c3)c(=O)c2=O)CC1
0.8	2.2	9.1%	-8.4	-10.9	6.1%	Cn1c(SCc2ccc(F)cc2)nnc1-c1ccccn1
-2.7	4.3	3.6%	-12.9	4.5	5.0%	NC(=O)c1cc(S(=O)(=O)NC2CCCCC2)co1
-2.2	-18.3	-4.9%	-13.5	?	3.1%	Cc1cc[n+](-c2[nH]c(=O)sc2/C=N/NC([S-])=Nc2ccccc2)cc1
-1.8	2.5	3.4%	-7.9	11.7	-39.0%[inhibitor]	CC(C)(C)NC(=O)COC(=O)c1ccccc1C(=O)c1ccccc1
1.1	-0.6	-13.0%	0.1	-4.0	-8.2%	COc1ccc(NC(=O)Nc2cccc(OC)c2)cc1
-1.5	-2.9	20.4%	-14.1	-6.6	-33.5%[inhibitor]	COc1ccc(/C=N/NC(=O)c2ccc(Cl)cc2Cl)cc1COC(C)=O
-1.4	-2.8	-5.0%	-18.1	12.6	8.8%	Cc1ccc(S(=O)(=O)NNC(=S)Nc2ccccc2)cc1

# The final 2 compounds of the part before lead into the next:
D2 agonist	CtBP-E1A blk	gsp antag	D2 PAM	Six1-Eya2 blk	gsp agonist	SMILES
-1.5	-2.9	20.4%	-14.1	-6.6	-33.5%[inhibitor]	COc1ccc(/C=N/NC(=O)c2ccc(Cl)cc2Cl)cc1COC(C)=O
-1.4	-2.8	-5.0%	-18.1	12.6	8.8%	Cc1ccc(S(=O)(=O)NNC(=S)Nc2ccccc2)cc1
0.7	-2.1	5.4%	0.5	-2.1	-38.6%[inhibitor]	CCOc1ccccc1NC(=S)NCc1ccco1
-6.7	0.0	-5.5%	-18.6	29.5	-3.5%[15.4 µM]	O=C(CN(Cc1cccs1)C(=O)CNS(=O)(=O)c1ccc(F)cc1)NCC1CCCO1 (configuration not stated)
-1.3	5.7	-13.2%	4.2	4.1	-3.1%	Cc1ccc(-c2cc(C(F)(F)F)n3ncc(C(=O)O)c3n2)cc1
-3.5	3.6	-2.3%	6.6	23.1	-13.4%	O=C1CSC(=Nc2cccc(Cl)c2Cl)N1
7.3	-17.0	-25.2%	-34.4	-10.0	?	CC(=O)Nc1ccc(-c2csc(NC(=O)Nc3ccccc3)n2)cc1
-0.2	5.0	10.3%	-8.4	8.7	·	COc1cc2c(cc1OC)[C@@H](NC(=O)C(C)C)[C@H](O)C2
7.3	-18.9	·	7.0	-23.1	·	COc1cccc(-c2cc(NC=O)c3ncc(-c4ccc(OC)c(OC)c4)n3c2)c1
-2.2	5.9	-22.3%	-5.0	21.4	29.1%[15.4 µM]	CCOC(=O)Cn1c(-c2ccccc2)cc(SC)c(C#N)c1=O

# Screening results as filed in PubChem.
